Source: PubChem BioAssay (several laboratories)
FGF22 binding – shifts melting point of recombinant human FGF22. recombinant FGF22 thermal shift, SYPRO orange fluorescence; percent of sucrose octasulfate shift, DMSO zero. calls only at 9.99 µM. 340,000 tested, 1.5% active;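 active means melting point raised past a set limit in the mean and every replicate; inconclusive means no clear call; three in four hits are not shown here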
Target sequence (Q9HCT0 whole entry, looked up): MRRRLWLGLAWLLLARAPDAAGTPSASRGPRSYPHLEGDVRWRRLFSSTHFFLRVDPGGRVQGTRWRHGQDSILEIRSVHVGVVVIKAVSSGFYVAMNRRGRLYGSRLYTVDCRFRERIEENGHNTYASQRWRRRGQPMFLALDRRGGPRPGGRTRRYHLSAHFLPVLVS
Ecoli growth – inhibitors of Escherichia coli growth; OD600, 23 h; active compounds read low; 330,000 tested, 0.21% active; OD600 absorbance (concentration not given with the values);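 active means OD600 absorbance below the run mean of sample wells minus 3.6 SD, in any replicate, cut at about 0.56 in these data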;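 further: stock transfer was 300 nL into about 60 µL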
ALR inh – inhibitors of human sulfhydryl oxidase ALR | P55789 | purified ALR, DTT oxidation, H2O2 HRP-luminol luminescence | inhibition, % (concentration not given with the values) | 290,000 tested, 3.8% active;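 active means mean and each replicate at 75% or more; inconclusive means only one of the two met; inactive means neither met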;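 further: stock transfer was 7.5 nL into about 7.5 µL; 0% = neutral wells and 100% = wells with inactivated enzyme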
Target sequence (P55789 whole entry, looked up): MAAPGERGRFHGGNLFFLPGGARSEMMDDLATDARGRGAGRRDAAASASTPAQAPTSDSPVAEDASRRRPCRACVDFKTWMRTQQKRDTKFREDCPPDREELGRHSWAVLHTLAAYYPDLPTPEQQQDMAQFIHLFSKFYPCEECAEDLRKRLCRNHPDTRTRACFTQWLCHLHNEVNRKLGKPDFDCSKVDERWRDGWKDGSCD
Ecoli rRNA inh – inhibitors of bacterial rRNA selective over humanized ribosomes | E. coli WT GFP vs humanized-ribosome RFP mutants, fluorescence, 24 h; active compounds read low; DMSO median 0, no signal -100 | 350,000 tested, 1.6% active | AID 720706 | GFP signal change (wild-type ribosome), % (test concentration not listed);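 active means significant combined selectivity score with lowered wild-type GFP, culture density cut under 30%, mutant RFP and density less affected; inactive means any of these conditions unmet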; further: one replicate is shown; some compounds called inactive have numbers as strong as hits
MLL AF4-AF9 inh – inhibitors of human MLL-AF4/AF9 interaction; AID 651704; inhibition, % at 10 µM; 350,000 tested, 0.47% active; P42568; AlphaScreen, biotin-AF4 peptide binding to FLAG-AF9;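 active means every replicate reaching a set inhibition limit, whatever the replicate mean, cut at about 25% in these data; inconclusive means mean inhibition reaches that limit but some replicates miss it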;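 further: 0% = plate neutral control median and 100% = total signal loss; the record names both 10 and 1 µM as test concentration; the first replicate is given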
Target sequence (P42568 whole entry, looked up): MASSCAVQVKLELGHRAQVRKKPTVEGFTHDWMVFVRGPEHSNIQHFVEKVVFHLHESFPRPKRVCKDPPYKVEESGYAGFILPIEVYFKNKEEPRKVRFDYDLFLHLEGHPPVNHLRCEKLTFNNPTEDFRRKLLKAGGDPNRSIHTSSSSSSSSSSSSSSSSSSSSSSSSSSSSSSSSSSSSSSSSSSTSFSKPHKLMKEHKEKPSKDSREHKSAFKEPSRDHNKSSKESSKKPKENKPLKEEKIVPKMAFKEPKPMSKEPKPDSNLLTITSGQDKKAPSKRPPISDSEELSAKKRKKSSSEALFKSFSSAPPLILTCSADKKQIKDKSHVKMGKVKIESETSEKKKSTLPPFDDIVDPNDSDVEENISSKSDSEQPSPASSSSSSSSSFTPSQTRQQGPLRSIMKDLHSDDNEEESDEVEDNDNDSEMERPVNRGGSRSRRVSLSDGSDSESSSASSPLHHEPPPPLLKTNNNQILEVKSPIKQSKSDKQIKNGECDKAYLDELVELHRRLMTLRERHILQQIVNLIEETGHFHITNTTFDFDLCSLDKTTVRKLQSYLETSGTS
HNF4A DNA FP – change in binding of human HNF4 alpha to DNA; HNF4a-FITC DNA binding, fluorescence polarization, 1 h; activity change, % at 10 µM; 360,000 tested, 0.3% active; in the data active means activity change above about 30%, passing the limit was not always enough;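 further: controls were the assay level and a saturating level of protein; the project sought stronger binding though the title names inhibitors; some compounds called inactive have numbers as strong as hits; positive values seem to mean higher polarization but the record does not say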
Vif TR-FRET – HIV-1 Vif–A3G interaction blockers – biochemical, TR-FRET, GST-Vif 1-94, biotin-A3G peptide, dose response retest, primary screen (AID 1117319); TR-FRET GST-Vif / biotin-A3G peptide binding; higher % means a stronger effect; test concentration not given here; strong numbers were not always called active; one-dose inhibition, %; IC50 in µM for titrated hits; 260,000 tested, 0.57% active;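 active means above the screen mean plus three standard deviations and confirmed in dose response; inconclusive means results disagree or hit not tested in dose response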;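 further: Vif residues 1-94 fused to GST binding biotinylated APOBEC3G peptide 110-148; 0% = full assay without inhibitor and 100% = GST in place of GST-Vif; retest series ran down from 100 µM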
Ecoli rRNA inh OD600 – further read-out of Ecoli rRNA inh, marked with its call; OD600 change, %; measured here: OD600 growth;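 optical density of the mix in the first replicate; 0 = DMSO median and -100 = no signal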
Ecoli rRNA inh RFP – recorded beside Ecoli rRNA inh, whose call it bears; RFP signal change, %; measured here: RFP humanized mutant strains;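 first replicate; 0 = DMSO median and -100 = no signal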
* marks the source's active call; other numbers are inactive results; i = inactive; ? = inconclusive; / = not tested or not shown; + = active, no number; & = joins results of further samples. The list is partial. The share of hits here may be higher or lower than overall.

SMILES	FGF22 binding	Ecoli growth	ALR inh	Ecoli rRNA inh	Ecoli rRNA inh OD600	Ecoli rRNA inh RFP	MLL AF4-AF9 inh	HNF4A DNA FP	Vif TR-FRET
CO[C@@H]1CN(C)C(=O)c2ccc(NC(=O)C3CC3)cc2OC[C@@H](C)N(C(=O)Cc2ccccn2)C[C@@H]1C	i	/	/	4	9	-4.8	-0.4	/	/
CCCCn1c(SCC(=O)N2CCCC2=O)nc2cc(S(N)(=O)=O)ccc21	i	0.63	-8	1	0	2.1	2.0	-0.1	-15%
COc1cc(/C=C2\NC(=S)N(C)C2=O)ccc1OCc1ccccc1F	i	0.65	2	11	16	1.0	-2.7	-0.4	/
CCCC1C2C(=O)N(c3cccc(C)c3)C(=O)C2ON1c1ccccc1 (centres undefined)	i	0.63	/	-13	-15	-2.6	/	-2.5	24%
CCCCn1c(SCC(=O)NCc2ccc3c(c2)OCO3)nnc1C(CC)N(C)C (centres undefined)	/	0.69	/	10	7	1.1	-0.5	1.2	-2%
Cc1ccc(NC(=O)n2ncc3c(C)cccc32)cc1F	i	/	/	6	7	-1.4	-4.9	0.4	-10%
C[C@@H]1CN([C@H](C)CO)C(=O)c2cccc(NC(=O)Nc3ccccc3)c2O[C@H]1CN(C)C(=O)Nc1ccc(F)cc1	i	/	/	-2	13	-2.7	-0.9	/	/
CN(CC(=O)NCC1CCCCC1)S(=O)(=O)c1ccc(Cl)cc1	i	0.68	2	-1	6	1.4	-0.4	1.7	-3%
Cc1cccc(Nc2nc(-c3ccccc3)cs2)n1	/	0.65	5	-36*	-28*	-6.3*	1.5	2.3	/
O=C(CNS(=O)(=O)c1cccs1)N1CCN(c2ccccc2F)CC1	i	0.7	-1	9	7	-0.4	0.4	-3.2	/
CC(C)NC(=O)N[C@@H]1C=C[C@H](CC(=O)NC2Cc3ccccc3C2)O[C@H]1CO	i	/	/	6	8	1.2	-6.7	/	/
COc1ccc(/C=C(\NC(=O)c2ccccc2)C(=O)NCCN2CCOCC2)cc1	i	0.63	8	6	4	-2.1	2.0	-0.9	/
Cc1noc(C)c1NC(=O)N(C)C[C@@H]1Oc2ccc(NC(=O)Nc3ccccc3)cc2CC(=O)N([C@H](C)CO)C[C@H]1C	i	/	/	4	5	1.3	-0.1	/	/
C[C@@H]1CN([C@@H](C)CO)C(=O)c2cc(NC(=O)Nc3ccc(F)cc3)ccc2O[C@@H](C)CCCCO[C@H]1CN(C)Cc1ccccc1	i	/	/	0	-8	14	9.8	/	/
CCc1nn(C(C)C(=O)NC(C)CCc2ccco2)c(=O)c2cc3occc3n12 (centres undefined)	/	0.67	2	/	/	/	/	0.4	?
Cc1cc(S(=O)(=O)NCc2cccs2)ccc1-n1cnnn1	/	0.7	-3	/	/	/	/	2.4	4%
COc1ccc(S(=O)(=O)Nc2ccccc2C)cc1C(=O)N1CCOCC1	/	0.68	5	5	7	0.3	-1.7	1.3	3%
O=C(Cc1ccc(Br)cc1)N1CCCCCC1	/	0.66	-3	/	/	/	/	-1.8	?
CCOC(=O)C1=C(COC(=O)CCc2ccc(F)cc2)NC(=O)NC1C (centres undefined)	i	0.67	-2	6	-2	-6.1	1.9	4.8	-4%
CCOC(=O)C1CCN(Cc2nc3ccccc3c(=O)n2-c2ccc(OCC)cc2)CC1	/	0.7	/	/	/	/	/	2.9	4%&12%
O=C(c1ccc([N+](=O)[O-])s1)N1CCN(c2ncccn2)CC1	i	/	/	3	6	0.1	-0.1	4.5	-2%
CC(C)C#Cc1ccc2c(c1)O[C@H](CN(C)Cc1cccnc1)[C@@H](C)CN([C@H](C)CO)S2(=O)=O	i	/	/	-28	-46	11	4.8	/	/
COc1ccc(NC(=O)c2oc3ccccc3c2CSC)cn1	i	0.68	/	3	3	2.9	-1.6	-5.5	-4%
CNc1cc(C(=O)Nc2cccc(OCc3ccccc3)c2)ncn1	i	/	/	7	24	2.7	-1.3	4.1	/
COc1ccc(CCNC(=O)C(=O)NCC2OCCN2S(=O)(=O)c2cccs2)cc1OC (centres undefined)	i	0.72	/	3	3	-0.3	2.0	5.4	-2%
COc1ccc(C(C)(C)NC(=O)C2CCC(=O)N(C3CC3)C2)cc1OC (centres undefined)	i	0.66	-4	20	12	0.8	-1.6	0.2	/
CN(C)CCOC(=O)NC12CC3CC(CC(C3)C1)C2	i	0.69	-3	21	0	2.6	/	0.5	?
O=C(NC1CCCc2ccccc21)c1ccc(CNc2c(N3CCOCC3)c(=O)c2=O)cc1 (centres undefined)	i	0.73	-13	8	9	1.4	-7.2	-0.2	1%
Cc1ccc(S(=O)(=O)NNC(=O)c2cnn(-c3ccc(Cl)cc3)c2C(F)(F)F)cc1	i	0.69	31	-32	-28	-3.9	0.4	7.1	6%
C[C@H](CO)N1C[C@H](C)[C@@H](CN(C)C)Oc2ccc(NC(=O)c3ccncc3)cc2CC1=O	i	/	/	4	4	-0.1	-0.3	/	/

Compound profiles, as listed above. Order of screens: FGF22 binding, Ecoli growth, ALR inh, Ecoli rRNA inh, Ecoli rRNA inh OD600, Ecoli rRNA inh RFP, MLL AF4-AF9 inh, HNF4A DNA FP, Vif TR-FRET
`Cc1ccc(S(=O)(=O)NNC(=O)c2cnn(-c3ccc(Cl)cc3)c2C(F)(F)F)cc1` in the list: i, 0.69, 31, -32, -28, -3.9, 0.4, 7.1, 6%
`COc1ccc(C(C)(C)NC(=O)C2CCC(=O)N(C3CC3)C2)cc1OC` (centres undefined) in the list: i, 0.66, -4, 20, 12, 0.8, -1.6, 0.2, /

(further entries)
SMILES	FGF22 binding	Ecoli growth	ALR inh	Ecoli rRNA inh	Ecoli rRNA inh OD600	Ecoli rRNA inh RFP	MLL AF4-AF9 inh	HNF4A DNA FP	Vif TR-FRET
O=C(Nc1nnc(-c2ccco2)o1)c1ccc(S(=O)(=O)N2CCOCC2)cc1	i	0.69	5	-32	-35	-7.1	-2.7	-2.1	-14%
COc1ccc(C(=O)CN2CCN(c3ccc(F)cc3)CC2)cc1OC	/	0.72	14	/	/	/	/	2.1	32%
O=C(NC(=S)Nc1cccc2ncccc12)c1ccccc1	i	0.71	-16	1	9	2.1	0.0	-1.0	8%
COc1cccc(S(=O)(=O)Nc2ccc3c(c2)C(=O)N(C)C[C@H](OC)[C@H](C)CN[C@@H](C)CO3)c1	i	/	/	3	1	1.9	-0.7	1.4	/
O=C(NCC1CCN(C(=O)C(=O)c2cccs2)CC1)c1cccnc1	i	/	/	15	16	1.4	-4.3	/	/
COc1ccc(NC(=O)Nc2ccc3c(c2)C(=O)N([C@H](C)CO)C[C@H](C)[C@@H](CN(C)C(=O)Nc2cccc4ccccc24)O3)cc1	i	/	/	-2	-10	-0.6	2.2	/	/
O=C(Cc1cccc2ccccc12)Nc1ccc(Br)cc1C(=O)O	i	0.67	/	-52	-71	-13	-0.8	-3.2	/
CCOC(=O)C1CN(Cc2ccccc2)C(=O)C1=O (centres undefined)	i	0.7	/	4	1	0.1	-2.0	-6.9	-2%
CCC(=O)Nc1ccc2c(c1)C(=O)N(C)C[C@@H](OC)[C@@H](C)CN(Cc1ccccc1C(=O)O)[C@@H](C)CO2	i	/	/	1	2	-0.7	-11	/	/
COc1ccc(OCC(=O)NNC(=S)NC(=O)C2CC2)cc1	i	0.63	20	-10	-19	-7.9	-1.1	3.0	/
O=c1[nH]c(/C=C/c2ccccc2Cl)nc2ccccc12	i	0.67	/	9	9	-0.4	-1.5	79*	/
COc1ccc(OC)c(NC2=C(Cl)C(=O)N(Cc3ccccc3)C2=O)c1	i	0.69	5	/	/	/	27*	-4.5	-7%
O=C(COC(=O)c1cncc(Br)c1)NCC12CC3CC(CC(C3)C1)C2	/	0.62	/	-3	-2	3.3	-0.9	-4.1	8%
O=C1NC2(CCCCC2)C(=O)N1CCS(=O)(=O)Oc1ccc(Br)cc1	i	0.7	-7	-16	-21	-3.2	-1.4	1.9	4%
O=C(Cn1cc(C(=O)C2CC2)c2ccccc21)NCC1CCCO1 (centres undefined)	/	0.73	-4	/	/	/	/	-2.1	1%
Cc1cc(-c2csc(N)n2)c(C)n1Cc1ccccc1	i	0.62	-1	11	14	7.6	1.7	5.8	2%
COc1cc(CNCCc2ccc(F)cc2)ccc1OCc1ccc(Cl)nc1	/	0.67	-2	-14	-17	1.0	/	-4.0	3.2µM*
Cc1noc(C)c1S(=O)(=O)N(C)C[C@H]1OCCCC[C@@H](C)Oc2ccc(NS(=O)(=O)c3ccc(Cl)cc3)cc2C(=O)N([C@@H](C)CO)C[C@@H]1C	i	/	/	-2	-3	1.2	0.0	/	/
Fc1ccc(-n2nnnc2-c2ccccc2Cl)cc1	i	0.68	1	-8	-32	-3.3	-6.9	-0.3	1%
Cc1ccc(S(=O)(=O)N(C)C[C@@H]2Oc3ncc(/C=C/c4ccccc4)cc3C(=O)N([C@H](C)CO)C[C@@H]2C)cc1	i	/	/	0	10	3.0	0.4	/	/
COC(=O)c1ccc(NC(c2ccc(Cl)cc2)P(=O)(OC)OC)cc1 (centres undefined)	/	0.67	-2	/	/	/	/	1.1	/
C=C(C)C1Cc2cc3ccc(=O)oc3cc2O1 (centres undefined)	/	0.66	-1	/	/	/	/	-2.2	/
CCC(CC)C(=O)N=C1SC2CS(=O)(=O)CC2N1CCc1ccc(OC)cc1 (centres undefined)	i	0.67	-18	4	-2	2.7	3.4	-2.8	4%
CCC1CCCCN1C(=O)CCc1nnc(Cc2c[nH]c3ccccc23)o1 (centres undefined)	i	0.7	-9	-7	-16	-1.3	-0.2	-3.3	-4%
COc1ccccc1NC(=O)CNC(=O)CC12CC3CC(CC(C3)C1)C2	i	0.72	-3	/	/	/	2.2	3.4	/
Oc1c(CN2CCOCC2)cc(CN2CCOCC2)c(O)c1O	+	0.66	/	4	9	6.8	-4.3	-7.2	9.2µM*
O=C(COc1ccccc1Cl)Nc1ccccc1C(=O)NC1CC1	i	0.71	-6	10	10	1.0	-0.9	1.6	7%
CCc1ccc(-c2cc(C)no2)cc1S(=O)(=O)Nc1ccc(C)cn1	i	0.7	-20	9	7	-0.6	-0.9	-2.6	/
Cc1ccc(-n2ncc(C(=O)Nc3cc(Cl)ccc3C)c2C2CCNCC2)cc1C	i	0.7	1	-14	-9	-1.4	-2.6	-0.3	-6%
CN(C)c1ccc(S(=O)(=O)NCC(=O)OCC(=O)Nc2cccc(Cl)c2)cc1[N+](=O)[O-]	i	0.69	-1	-19	-7	8.8	7.7	4.2	/
CC(=O)N1CCCCN2[C@@H](CO)[C@H](c3ccc(-c4ccccc4)cc3)[C@@H]2C1	i	/	/	0	1	4.6	0.1	/	/
CN(C)c1ccc(P(=O)(OCc2ccccc2)C(O)c2ccncc2)cc1 (centres undefined)	/	0.64	/	/	/	/	/	6.3	12%
COc1ccccc1C1N=C(c2ccccc2C)NO1 (centres undefined)	i	0.71	0	0	-4	0.1	-3.0	0.4	/
COc1ccc(Cl)cc1NC(=O)c1cc(-c2ccccc2O)n[nH]1	/	0.69	50	/	/	/	/	-2.0	24%
Cc1nn(C(=O)c2ccc([N+](=O)[O-])cc2)c(C)c1Br	i	0.64	-11	/	/	/	1.4	14	0%
COc1cccc(C(=O)Nc2nc(C)cs2)c1	/	0.72	-13	/	/	/	/	0.1	0%
COc1c(C)cc(S(=O)(=O)NCc2ccccn2)c(C)c1C	i	0.67	-18	8	1	2.3	-1.4	-3.0	/
COc1ccccc1S(=O)(=O)N[C@H]1C=C[C@@H](CC(=O)NCc2cc(F)cc(F)c2)O[C@@H]1CO	i	/	/	3	4	-1.7	-1.9	/	/
O=C(Cc1cccs1)Nc1ccc(S(=O)(=O)N2CCCC2)cc1	i	0.69	-37	-11	-12	-0.2	-0.5	-13	?
